Mtb MenB inh – inhibitors of Mycobacterium tuberculosis MenB enzyme. MenB enzyme assay, absorbance read-out; some hits fall short of the stated cut. inhibition, %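 (about 12 µg/mL by stock and volumes)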. 100,000 tested, 0.43% active. AID 540299;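 active means mean of two replicates above 30%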;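 further: 0% = no compound and 100% = wells with inactive enzyme; the first replicate is given; strong numbers were not always called active; inactives centre near -10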
Target sequence (P9WNP5 whole entry, looked up): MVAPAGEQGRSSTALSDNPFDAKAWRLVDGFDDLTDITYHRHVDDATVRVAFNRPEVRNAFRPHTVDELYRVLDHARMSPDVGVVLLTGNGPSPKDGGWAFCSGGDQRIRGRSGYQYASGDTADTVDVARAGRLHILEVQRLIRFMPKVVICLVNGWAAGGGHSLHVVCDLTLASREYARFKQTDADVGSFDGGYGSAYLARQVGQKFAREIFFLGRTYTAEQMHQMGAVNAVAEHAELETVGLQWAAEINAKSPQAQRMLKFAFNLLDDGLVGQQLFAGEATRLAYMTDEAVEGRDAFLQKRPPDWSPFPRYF
MbtI inh – blocks the Mycobacterium tuberculosis siderophore enzyme MbtI. inhibition, %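 (about 17 µg/mL by stock and volumes)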. 100,000 tested, 0.89% active. purified MbtI enzyme, fluorescence intensity read-out. AID 493033;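 active means above 50% in both replicates, above 80% if mildly self-fluorescent; inactive means the rest, strongly fluorescent compounds included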;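 further: 0% = mean of negative and 100% = mean of positive controls; one replicate is shown; some compounds called inactive have numbers as strong as hits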
Target sequence (P9WFX0 whole entry, looked up): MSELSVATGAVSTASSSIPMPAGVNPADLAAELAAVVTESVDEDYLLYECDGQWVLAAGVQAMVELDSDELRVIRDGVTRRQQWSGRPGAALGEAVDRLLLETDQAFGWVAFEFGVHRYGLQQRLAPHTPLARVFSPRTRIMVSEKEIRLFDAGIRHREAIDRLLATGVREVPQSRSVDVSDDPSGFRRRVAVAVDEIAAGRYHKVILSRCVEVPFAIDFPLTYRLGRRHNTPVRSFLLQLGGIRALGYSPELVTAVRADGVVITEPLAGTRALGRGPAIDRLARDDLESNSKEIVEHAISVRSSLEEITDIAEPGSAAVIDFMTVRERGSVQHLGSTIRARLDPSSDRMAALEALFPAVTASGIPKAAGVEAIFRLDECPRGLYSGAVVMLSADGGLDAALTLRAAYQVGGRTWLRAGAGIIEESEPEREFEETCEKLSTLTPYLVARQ
PV pol inh – poliovirus RNA polymerase inhibition; P03300; poliovirus polymerase elongation, fluorescence polarization; hits give low values; % elongation, % (compound at 16.7 µg/mL); 150,000 tested, 0.66% active; in the data active means % elongation below about 90%; further: some results filed as inactive read as strong as hits
PV pol inh intensity – further read-out of PV pol inh, marked with its call; % elongation; measured here: total intensity read-out; formula for this scale not given here;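 total fluorescence in place of polarization; lower means less elongation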
* marks the source's active call; other numbers are inactive results; i = inactive; / = no result given; & = joins results of further samples.

SMILES	Mtb MenB inh	MbtI inh	PV pol inh	PV pol inh intensity
Cc1ccc2oc(=O)c3cc(C(=O)NCCN4CCCCC4C)sc3c2c1 (configuration not stated)	-16	61	101	108
O=C(/C=C/c1ccccc1)NCc1nc2ccccc2[nH]1	/	0	102	106
COc1cccc(CNC(C)C(=O)Nc2ccc(S(N)(=O)=O)cc2)c1 (configuration not stated)	9	-4	105	113
COc1cccc(CNn2cnnc2)c1O	-24	1	99	100
Cc1c(C(=O)NN)c2cc(O)ccc2n1C	-3	-17	99	110
O=c1cc(CN2CCN(S(=O)(=O)/C=C/c3ccccc3)CC2)c2ccc(O)cc2o1	-14	-38	106	113
CCCOc1ccc(C(=O)Nc2ccc(-c3nc4ccccc4o3)cc2)cc1	-7	-22	104	108
CCCNc1c(NC(C)=O)c(=O)oc2ccccc12	2	-3	98	108
COc1ccc2cc3c(N)nn(C(=O)c4cncc(Br)c4)c3nc2c1	-17	0	98	105
COc1ccc(C)cc1C(=O)CCC(=O)NC1CCCCC1	14	33	107	104
CCOC(=O)c1c(SCC)nc(=O)[nH]c1C	-20	-8	105	112
COc1ccc(CC(=O)Nc2ccc(OC)cc2)cc1	6	/	102	104
Fc1nc(N2CCCC2)c(F)c(Oc2ccc(Cl)cc2)c1F	10	2	102	102
COc1ccc(/C=N/n2cn[nH]c2=S)cc1	-40	71*	105	100
O=S(=O)(CCSc1nc2ccccc2s1)c1nc2ccccc2s1	-29	-1	100	94
COc1ccc(Nc2nc(N3CCN(S(=O)(=O)N(C)C)CC3)nc3ccccc23)cc1	-81	90	106	101
Cc1cc(C)c2c(N)c(S(=O)c3ccc(C(C)(C)C)cc3)sc2n1 (configuration not stated)	-17	-14	103	108
Cc1ccc(C2C(C(=O)O)c3ccccc3C(=O)N2C)o1 (configuration not stated)	-7	-4	104	102
O=C(Nc1cccc(Cl)c1)c1ncn(-c2ccccc2)n1	-18	6	104	98
Cc1nc2ccc(C(=O)OCC#N)cc2nc1C	-1	14	102	101
COc1ccc(-n2nc(C(=O)O)cc2-c2ccccc2)cc1	7	12	100	100
COc1cccc(NC(=O)c2sc3[nH]c(=O)c(C(=O)O)cc3c2N)c1	-1	53	100	100
COC(=O)c1nc(NC(=O)c2ccccc2)n[nH]1	0	-3	102	109
CC(NC(=O)NC(C)(C)C)c1ccccc1 (configuration not stated)	-1	-6	101	105
Cc1csc(SCC(=O)NC(=O)NCc2ccco2)n1	-24	-5	103	109

Next part:
SMILES	Mtb MenB inh	MbtI inh	PV pol inh	PV pol inh intensity
Oc1ccc(N=c2cc(-c3ccccc3)oc3ccc(Cl)cc23)cc1	-29	-41	100	97
CN(C)CCSc1nc(-c2cccs2)cc(-c2ccc(Cl)cc2)c1C#N	1	/	101	103
NC(CC1CCCCC1)C(O)C(F)(F)F (configuration not stated)	/	-3	100	96
COc1cccc(-c2noc(Nc3ccccc3)n2)c1	-2	-29	100	102
Cc1c(-n2cc(C(=O)O)c(=O)c3c(F)c(F)c(F)c(F)c32)c(=O)n(-c2ccccc2)n1C	-18	7	102	104
O=c1c(-c2nn[nH]n2)coc2ccccc12	-1	-11	96	110
O=C1CC(c2cccc(Br)c2)c2c(c3ccccc3oc2=O)O1 (configuration not stated)	-5	/	102	105
O=C(Cn1nc(C(=O)O)c2ccccc2c1=O)NC12CC3CC(CC(C3)C1)C2	-19	-4	102	97
COc1ccc(N2C(=O)NC(=O)C(Cc3ccc(O)c(OC)c3)C2=O)cc1 (configuration not stated)	1	/	96	109
Nc1nonc1-c1nc2ccccc2n1CCn1c(-c2nonc2N)nc2ccccc21	-15	-2	102	103
CCOc1ccc(S(=O)(=O)N(C)c2ccc(OCC(=O)OCc3c(C)noc3C)cc2)cc1	-24	-5	100	106
C#CC1(C)CCCC(C)(C)O1 (configuration not stated)	5	-3	101	104
CS(=O)(=O)c1cccc(C(=O)O)c1	3	23	102	104
O=c1[nH]c2c(c(=O)n1C1CCCCC1)CCC2	-5	-6	107	109
CNS(=O)(=O)c1cccc(C(=O)OCC(=O)N2c3ccccc3NC(=O)C2(C)C)c1	-27	-23	97	101
Cc1[nH]n(-c2ccccc2)c(=O)c1C=Nc1cccc(N)c1	-54	13	102	104
CC(C)=CCOc1ccc2c(C)cc(=O)oc2c1	/	49	100	91
O=C(CSc1ncn[nH]1)N1CCCCC1	-8	-9	100	99
O=c1ccc(-c2ccc3c(c2)OCO3)nn1Cc1ccc(F)cc1	-10	13	/	/
Cc1ccc(-c2nnc(N3CCNC(=O)C3)c3ccccc23)cc1	7	2	101	100
CC(NC(=O)Cc1ccccc1)c1nc2ccccc2[nH]1 (configuration not stated)	-6	9	98	97
CCOC(=O)c1c(C)noc1/C(C)=N\OC(=O)c1ccccc1	-4	-10	102	105
CCc1cc(SCc2nnc(-c3ccccc3)o2)n2c(nc3ccccc32)c1C#N	17	10	100	99
CN(C)Cc1c(O)ccc2c(=O)c(Oc3ccccc3)coc12	/	-29	105	106
C1CC(CCN2CCOCC2)CCN1	-69	-7	106	103

Profiles, looked up by structure. Order of screens: Mtb MenB inh	MbtI inh	PV pol inh	PV pol inh intensity
Listed for COc1cccc(-c2noc(Nc3ccccc3)n2)c1 : -2	-29	100	102
Listed for COc1ccc(N2C(=O)NC(=O)C(Cc3ccc(O)c(OC)c3)C2=O)cc1 (configuration not stated) : 1	/	96	109
Listed for CNS(=O)(=O)c1cccc(C(=O)OCC(=O)N2c3ccccc3NC(=O)C2(C)C)c1 : -27	-23	97	101
Listed for Nc1nonc1-c1nc2ccccc2n1CCn1c(-c2nonc2N)nc2ccccc21 : -15	-2	102	103
Listed for CC(C)=CCOc1ccc2c(C)cc(=O)oc2c1 : /	49	100	91

Three records picked at random from those above:
SMILES	Mtb MenB inh	MbtI inh	PV pol inh	PV pol inh intensity
CC(NC(=O)Cc1ccccc1)c1nc2ccccc2[nH]1 (configuration not stated)	-6	9	98	97
CNS(=O)(=O)c1cccc(C(=O)OCC(=O)N2c3ccccc3NC(=O)C2(C)C)c1	-27	-23	97	101
O=c1ccc(-c2ccc3c(c2)OCO3)nn1Cc1ccc(F)cc1	-10	13	/	/

Additional entries follow.
SMILES	Mtb MenB inh	MbtI inh	PV pol inh	PV pol inh intensity
COc1ccc(C(=O)COC(=O)c2c3c(nc4ccccc24)CCN(C)C3)cc1	-17	8	104	106
Cc1ccc(-c2n[nH]c(Cc3ccccc3)n2)cc1	0	14	101	103
CCN(C(=S)NCCN1CCOCC1)c1cccc2ccccc12	-10	-5	105	104
Cc1cccc(C[N+](C)(C)CCC(=O)c2ccccc2)c1	-1	/	104	103
C[C@H](N=C1NS(=O)(=O)c2ccccc21)C(=O)OCc1cn2ccccc2n1	-2	-103	102	104
CCN(CC(=O)Nc1ccc(I)cc1)CC(=O)NC1CCS(=O)(=O)C1 (configuration not stated)	-7	-11	101	104
N#Cc1sc2nc(-c3ccncc3)ccc2c1N	-5	/	87	107
COc1cccc(C2c3c(oc4ccc(C)cc4c3=O)C(=O)N2CCCN(C)C)c1 (configuration not stated)	-8	-1	103	100
Cc1nnc2c(N3CCCC3)nc3ccc(C(=O)c4ccccc4)cc3n12	-9	-9	103	102
CNS(=O)(=O)c1ccc(NC(=O)C2CC3C=CC2C3)cc1 (configuration not stated)	18	-1	99	103
CS(=O)(=O)c1ccccc1C(=O)Nc1ccc(C(F)(F)F)cc1	-22	-8	106	105
O=C(NCc1ccccc1)c1cccnc1N1CCOCC1	0	-3	102	101
O=C(CCC1CCCC1)NCc1ccco1	0	1	100	104
COc1ccc2ncc(S(=O)(=O)c3ccccc3)c(N3CCC(C(N)=O)CC3)c2c1	-8	4	102	102
O=C(Cn1c(SCc2ccccc2F)nc2ccncc21)NCC1CCCO1 (configuration not stated)	-3	4	102	101
Cc1cc(C)n(C(=O)c2cc(-c3ccc(C)o3)nc3ccccc23)n1	-6	15	104	101
Oc1cccc(N=Cc2c[nH]c3ccccc23)c1	20	-2	107	103
O=C(O)c1ccc(S(=O)(=O)c2ccc(Cl)cc2)cc1	9	4	98	98
COc1ccc(C2C3C(=O)N(c4ccccc4)C(=O)C3ON2c2ccccc2)cc1 (configuration not stated)	-4	6	103	103
CSc1nccc(-c2sc(SC)c(C#N)c2-c2ccccc2)n1	13	18	100	101
CC1(C)CC(=O)C2=C(C1)Nc1ccccc1NC2/C=C/c1ccccc1 (configuration not stated)	-1	/	97	92
COc1ccc2c(CC(=O)OC(C)C(N)=O)coc2c1 (configuration not stated)	-7	-6	106	106
CSc1scc(NC(=O)c2ccc(Cl)cc2)c1S(=O)(=O)C(C)C	5	-10	107	113
CSc1cccc(-n2c(C)ccc2C)c1	-3	-12	131	143
Cc1ccc(C(=O)Nc2ccc(-c3nnc(-c4ccco4)o3)cc2)cc1C	-2	-94	100	102

(listing goes on)
SMILES	Mtb MenB inh	MbtI inh	PV pol inh	PV pol inh intensity
CCC(=O)N1CCN(c2cc(Cl)ccc2C)CC1	-5	-11	100	104
CN1CCN(c2ccc(CNS(=O)(=O)c3ccc4c(c3)CCO4)cc2)CC1	-5	-5	98	102
CC(C)[C@@H]1NC(=O)[C@H](Cc2ccccc2)NC(=O)[C@@H](CC(=O)O)NC(=O)CNC(=O)[C@H](CCCN=C(N)N)NC1=O	-5	-5	102&99	103&101
CC(C(=O)NCc1cccnc1)N1Cc2ccccc2C1=O (configuration not stated)	9	-4	100	103
O=c1cc(C(F)(F)F)[nH]n1-c1ccccc1	-23	1	100	103
CC1Cc2ccccc2N1S(=O)(=O)c1ccccc1 (configuration not stated)	-17	-3	104	104
O=c1[nH]c(=O)n(C2CCCO2)cc1F (configuration not stated)	-8	1	103	99
O=C(COC(=O)c1n[nH]c2ccccc12)Nc1ccc(N2CCOCC2)cc1	-10	-16	101	109
COC(=O)C1=C(C)c2oc(N)nc2C1c1ccc(C(C)C)cc1 (configuration not stated)	-17	i	100	103
COC(=O)c1cc(C#N)c(SCC(=O)C(C)(C)C)nc1C(OC)OC	-11	12	101	101
CCOc1ccc(C(=O)C(C)OC(=O)c2cccc(-n3cnnn3)c2)cc1 (configuration not stated)	-41	-6	102	100
Cc1ccc(S(=O)(=O)N2CCN(C(=O)c3ccc(OCc4c(C)noc4C)cc3)CC2)cc1	-5	-2	103	108
Nc1nc2c(s1)CCCC2	13	66	99	98
CN(C)C=Nc1c(C#N)c2n(c1C(=O)c1ccc(Br)cc1)CCC2	1	5	101	107
COC(=O)c1ccccc1Oc1c(F)c(F)nc(N2CCOCC2)c1F	-5	3	104	107
COc1ccc(-c2noc(N3CCCCCC3)n2)cc1	-28	-4	104	98
COc1ccc(-c2nnc(SCN3C(=O)c4ccccc4C3=O)n2C(C)C)cc1	-10	10	97	105
CCCn1nc(C(=O)OCc2cccc(S(=O)(=O)N(C)C)c2)c2ccccc2c1=O	-26	-9	/	/
CN1C(c2ccccc2)CC(C)(O)CC1c1ccccc1 (configuration not stated)	-64	-5	100	102
N#CC1=C(N)SC(N)=C(C#N)C1c1cccc2ccccc12	-105	56	76	196
CC1CCC(C(C)C)C(OC(=O)CSc2cccc[n+]2[O-])C1 (configuration not stated)	/	13	103	104
COc1ccc(CN2CCN(Cc3ccco3)CC2)c(OC)c1OC	-7	-7	98	101
O=C(COc1ccccc1)N1CCNC1=O	-6	/	100	104
CCC(=O)Nc1nc2ccccc2n1CCN1CCOCC1	-31	-6	102	104
O=C(C1CN(Cc2nc(-c3ccc(Cl)cc3)no2)c2ccccc2O1)N1CCOCC1 (configuration not stated)	-27	0	101	104

Additional results.
SMILES	Mtb MenB inh	MbtI inh	PV pol inh	PV pol inh intensity
Cc1ccc(N(C)C(=O)Cn2c(=O)oc3cc(S(=O)(=O)N4CCCC4)ccc32)cc1	-15	3	104	99
CCOc1ccc(OC(=O)c2sc3ncn(CC)c(=O)c3c2C)cc1	1	4	103	102
Fc1ccc(Nc2ncnc3sccc23)cc1	/	-30	103	104
COc1cc(NC(=O)/C(=C/c2ccco2)NC(=O)c2ccc(C)c(C)c2)cc(OC)c1OC	-17	-8	101	102
CCOc1ccc2nc(NC(=O)c3cccc(OC)c3)sc2c1	-42	104	98	93
Cc1nn(-c2ccccc2)c(N2CCCCC2)c1C=C(C#N)C#N	-34	-1	101	105
COC(CNC(=O)c1ccc(CS(=O)c2ccccc2)o1)OC (configuration not stated)	-7	6	105	104
Fc1nc(Nc2ccccc2)c2c(c1Cl)Oc1ccccc1O2	5	10	103	98
CCCNC(=O)c1c(N)n(-c2ccccc2)c2nc3ccccc3nc12	-13	-32	/	/
CSc1ncc(C(=O)NC(C)c2ccccc2)c(C)n1 (configuration not stated)	0	-14	101	104
CCOC(=O)C1=C(Cn2ncc(Cl)c(Cl)c2=O)NC(=O)NC1C (configuration not stated)	-4	-187	91	95
CC(C)c1ccc(S(=O)(=O)N2CCN(S(=O)(=O)c3ccc(C(C)C)cc3)C(C)C2)cc1 (configuration not stated)	-18	/	101	107
CC1CC(C)CN(C(=O)c2cc3ccccc3oc2=O)C1 (configuration not stated)	1	14	103	103
O=C(c1cccc(-n2cnnn2)c1)N1CCOCC1	-3	-16	100	102

Five successive entries from above, quoted:
SMILES	Mtb MenB inh	MbtI inh	PV pol inh	PV pol inh intensity
CCCNC(=O)c1c(N)n(-c2ccccc2)c2nc3ccccc3nc12	-13	-32	/	/
CSc1ncc(C(=O)NC(C)c2ccccc2)c(C)n1 (configuration not stated)	0	-14	101	104
CCOC(=O)C1=C(Cn2ncc(Cl)c(Cl)c2=O)NC(=O)NC1C (configuration not stated)	-4	-187	91	95
CC(C)c1ccc(S(=O)(=O)N2CCN(S(=O)(=O)c3ccc(C(C)C)cc3)C(C)C2)cc1 (configuration not stated)	-18	/	101	107
CC1CC(C)CN(C(=O)c2cc3ccccc3oc2=O)C1 (configuration not stated)	1	14	103	103

Screening data as filed in PubChem BioAssay.
